Screening data: PubChem, several laboratories
ALR inh – inhibitors of human ALR sulfhydryl oxidase, primary screen, biochemical, H2O2 detection, HRP-luminol luminescence, single point. FAD-linked sulfhydryl oxidase ALR (Homo sapiens), P55789. purified ALR, DTT oxidation. inhibition, % (no concentration beside the values). 290,000 compounds, 3.8% hits. AID 485317, 2010;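 active = mean and each replicate at 75% or more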;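 also: stock transfer was 7.5 nL into about 7.5 µL; 0% = neutral wells and 100% = wells with inactivated enzyme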
Target sequence (P55789 whole entry, looked up): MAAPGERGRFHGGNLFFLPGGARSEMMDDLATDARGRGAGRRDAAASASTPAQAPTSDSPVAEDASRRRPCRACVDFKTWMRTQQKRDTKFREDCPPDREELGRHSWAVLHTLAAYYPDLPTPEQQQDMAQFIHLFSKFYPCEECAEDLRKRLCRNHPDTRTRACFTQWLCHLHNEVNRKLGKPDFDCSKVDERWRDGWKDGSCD
Beta2AR agonist – beta2AR agonists driving receptor internalization, primary screen, cell-based, FAP fluorogen, flow cytometry; Beta-2 adrenergic receptor (Homo sapiens), P07550; Am2.2-beta2AR cells; reference of the scale not given here; response, % (no concentration beside the values); 340,000 compounds, 0.43% hits; AID 504454, 2011;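 active = response above a set limit, near 3 SD of response in nonfluorescent compounds, cut at about 42% in these data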;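 also: stock transfer was 100 nL into about 11 µL; a reference agonist was the positive control; negative values mostly stem from fluorescent compounds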
Target sequence (P07550 whole entry, looked up): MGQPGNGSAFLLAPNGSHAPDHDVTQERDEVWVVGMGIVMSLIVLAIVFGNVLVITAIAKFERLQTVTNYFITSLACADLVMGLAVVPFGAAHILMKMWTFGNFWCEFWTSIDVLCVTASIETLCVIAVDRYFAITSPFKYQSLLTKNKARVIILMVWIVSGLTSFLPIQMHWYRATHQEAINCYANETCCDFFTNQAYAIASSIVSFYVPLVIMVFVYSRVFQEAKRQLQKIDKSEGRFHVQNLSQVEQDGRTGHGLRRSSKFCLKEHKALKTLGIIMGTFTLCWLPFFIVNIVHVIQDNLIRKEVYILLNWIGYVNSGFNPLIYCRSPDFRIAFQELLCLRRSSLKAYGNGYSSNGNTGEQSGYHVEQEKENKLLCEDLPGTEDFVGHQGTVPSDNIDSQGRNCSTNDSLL
Beta apoptosis – inhibitors of cytokine-induced beta cell apoptosis, primary screen, luminescence. INS-1E cytokine-induced death, ATP luminescence, 48 h; percent of positive-control rescue, neutral wells zero. protection from apoptosis, % (test concentration not listed). 300,000 compounds, 0.8% hits;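 active = all replicates at 75% or more, or half of them and the mean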;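 also: 0% = cytokine-treated negative control wells and 100% = positive control rescue; higher means more ATP so stronger rescue from cytokine killing; wells of about 40 µL received 100 nL stock; the first replicate is given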
Calb FLC – C. albicans growth inhibition with fluconazole, primary screen, CaCi-2 strain, Alamar Blue fluorescence; 300,000 compounds, 0.57% hits; AID 1979, 2009; C. albicans CaCi-2 (fluconazole-resistant clinical isolate) + fluconazole, 48 h; growth inhibition, % (concentration not given with the values);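 active = most replicates above 75%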;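 also: all wells also contain fluconazole at 8 µg/ml as a sub-toxic cotreatment; 0% = median of DMSO wells and 100% = median of geldanamycin control wells; wells of about 8 µL received 7.5 nL stock; the first replicate is given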
T cruzi inh – inhibitors of intracellular T. cruzi growth, primary screen, luminescence, NIH3T3 host cells | T. cruzi beta-gal in NIH3T3, 90 h | inhibition, % (concentration not given with the values) | 300,000 compounds, 1.4% hits;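 active = mean inhibition across valid replicates above about 55%, limit read from the data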;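 also: signal also drops with host cell toxicity which is not excluded here; 0% = plate median of DMSO wells and 100% = zero luminescence signal; higher percent means less beta-gal luminescence so fewer parasites; stock transfer was 50 nL into about 50 µL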
Bfl-1 A1 inh – caspase 3/7 activation in MEF A1-2A-BIM cells, primary screen, A1 inhibitor project, cell-based, luminescence, HTS; Caspase-Glo 3/7 luminescence, 3 h; percent of clofoctol response, vehicle zero; caspase activation, % (test concentration not listed); 330,000 compounds, 0.066% hits; AID 2462, 2010;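 active = over half of replicate activation scores above 10%, or exactly half above 10 with the replicate mean above 10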;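 also: wells of about 30 µL received 50 nL stock; many hits fall short of the cut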
LANA-H2A inh – blockers of LANA interaction with H2A/H2B – biochemical, FP readout, HTS, primary screen | Protein LANA1 (Human herpesvirus 8 type P (isolate GK18)), Q9QR71 | cell-free LANA-H2A/H2B peptide, fluorescence polarization | inhibition, % (concentration not given with the values) | 320,000 compounds, 0.6% hits | AID 2629, 2010; in the data active = inhibition mostly above about 10%, no sharp cut-off; inactive = mostly below about 6.7%;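 also: stock transfer was 7.5 nL into about 10 µL; 0% = median of vehicle wells and 100% = median of positive control wells; one replicate is shown; the record names a cut of 25% in any replicate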
Ecoli rRNA inh – reduced GFP signal of wild-type E. coli, primary screen, bacterial rRNA inhibitor project, GFP/RFP fluorescence, OD600, single point; E. coli WT GFP vs humanized-ribosome RFP mutants, 24 h; stronger effect = lower value; DMSO median 0, no signal -100; GFP signal change (wild-type ribosome), % (no concentration beside the values); 350,000 compounds, 1.6% hits;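 active = significant combined selectivity score with lowered wild-type GFP, culture density cut under 30%, mutant RFP and density less affected; inactive = any of these conditions unmet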; also: one replicate is shown; some compounds called inactive have numbers as strong as hits
Ecoli rRNA inh OD600 – recorded beside Ecoli rRNA inh, whose call it bears; OD600 change, %; measured here: OD600 growth;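 optical density of the mix in the first replicate; 0 = DMSO median and -100 = no signal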
Ecoli rRNA inh RFP – also measured in Ecoli rRNA inh; calls as there; RFP signal change, %; measured here: RFP humanized mutant strains;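 first replicate; 0 = DMSO median and -100 = no signal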
Numbers without * were called inactive; x = not tested or not shown. The list is partial; count on the stated rates, not on these rows.

Molecule,ALR inh,Beta2AR agonist,Beta apoptosis,Calb FLC,T cruzi inh,Bfl-1 A1 inh,LANA-H2A inh,Ecoli rRNA inh,Ecoli rRNA inh OD600,Ecoli rRNA inh RFP
O=C(O)c1cc(-c2ccc3c(c2)OCO3)nc2ccc(Br)cc12,29,8,3,11,-6,0.2,-2.3,-32,-34,-11
CCC(Sc1ncnc2sc(C)c(C)c12)C(=O)OC (stereo unspecified),-8,13,4,-17,-2,-0.2,-4.2,x,x,x
COCc1cc(CNC(=O)C2CCC(=O)N(Cc3cccc(OC)c3)C2)[nH]n1 (stereo unspecified),x,-6,x,-8,2,x,x,4,7,-1.9
Cc1ccccc1-c1cc(=O)c2ccccc2o1,0,-7,-6,x,x,-0.4,-4.0,-15,-5,-9.6
COC(=O)c1cc(NC(=O)Nc2ccccc2OC)cc(C(=O)OC)c1,14,29,6,-4,11,-0.9,-1.9,x,x,x
Cc1ccc(S(=O)(=O)N2CCOCC2)cc1C(=O)N1CCCCCC1,5,-1,-4,2,-7,0.1,5.2,2,4,-2.4
COc1cccc(N(C(=O)c2ccco2)c2nc(-c3sc(NC(=O)c4ccco4)nc3C)cs2)c1,-7,3,0,9,15,-0.5,1.5,-2,7,-0.4
Cc1c(NC(=O)CN2C(=O)NC(C)(c3ccc(Cl)cc3)C2=O)c(=O)n(-c2ccccc2)n1C (stereo unspecified),1,-4,-4,1,-14,0.3,-1.8,4,1,0.3
O=C1CN(C(=O)c2cc([N+](=O)[O-])ccc2Cl)C(c2ccccc2)c2cc(F)ccc2N1 (stereo unspecified),-71,-14,0,36,-7,-0.2,-1.7,x,x,x
O=C(COC(=O)C(O)c1ccccc1)NC12CC3CC(CC(C3)C1)C2 (stereo unspecified),-4,4,2,5,-16,0.5,-20,x,x,x
Clc1ccc2[nH]cc(-c3nnnn3-c3ccccc3)c2c1,-19,-7,6,72,27,-0.6,-0.5,x,x,x
O=C(c1n[nH]c2ccccc12)N1CCN(S(=O)(=O)c2ccccc2)CC1,5,3,5,x,x,-0.7,-1.7,x,x,x
Cc1[nH]nc(SCC(=O)NC2CCCCC2)c1[N+](=O)[O-],3,-10,4,-5,10,-0.2,5.8,4,-2,-6.7
Cc1c(C)c2ccc(OCC(=O)N3CC[C@@]4(O)CCCC[C@H]4C3)cc2oc1=O,-6,-17,6,1,12,1.1,-1.6,-2,3,-1.2
CCC(c1nnnn1C(C)(C)C)N(Cc1ccco1)Cc1cc2cccc(C)c2[nH]c1=O (stereo unspecified),-27,-1,9,9,41,0.4,-4.9,x,x,x
Cc1ccc(Sc2c(C(=O)Nc3ccc(F)cc3F)c(C(F)(F)F)nn2C)cc1,21,-12,-8,-1,18,0.1,0.2,x,x,x
CCc1cccc(Oc2nn[nH]n2)c1,98*,-2,1,-10,-6,-1.4,0.8,7,5,0.8
CNc1c(-n2cc(C(=O)OC)c(C(=O)OC)c2C(=O)OC)c(=O)n(C)c(=O)n1C,-29,5,-1,8,-1,0.2,0.1,-2,7,-3.8
CC(OC(=O)c1ccc2c(=O)n3c(nc2c1)CCC3)C(N)=O (stereo unspecified),-15,-4,1,3,4,0.3,-2.5,-1,2,-2.7
CC(=O)NCc1cccc(CNC(C)=O)n1,0,-7,-1,32,-10,0.3,-4.7,x,x,x
COC(=O)Nc1nncs1,-12,4,-6,-8,-8,-0.3,-9.4,13,13,2.0
O=C1OCc2cc(NC(=O)C3COc4ccccc4O3)ccc21 (stereo unspecified),-1,1,-1,-10,-5,0.5,-1.3,-2,-8,-1.7
O=C(O)c1c(NC(=O)N2CCCC2)sc2c1CCCC2,-1,0,-5,53,-6,-2.8,2.5,-1,2,-1.3
CCn1c(C2CC(=O)N(Cc3ccccc3)C2)nc2ccccc21 (stereo unspecified),-38,-3,-7,2,3,1.0,4.1,5,10,10
O=C(CN1CCOCC1)n1c2c(c3ccccc31)CCCC2,x,4,-7,-9,9,0.0,4.3,-12,-7,-6.5
NS(=O)(=O)c1cccc(NC(=O)c2cccs2)c1,1,-4,-1,25,-5,0.4,0.3,3,-2,4.4
C=CC12C=CC=CN1C(C(=O)OC)=C(C(=O)OC)C(C(=O)OC)=C2C(=O)OC (stereo unspecified),2,4,2,-3,2,0.7,3.1,x,x,x
COC(=O)c1cc(Sc2c(Cl)cccc2Cl)ccn1,-12,7,2,17,-3,-0.3,4.7,-53,-73,-16
Cc1ccc(S(=O)(=O)N(C)CC(=O)OCC(=O)c2c(N)n(C)c(=O)n(C)c2=O)cc1,-1,20,-6,-9,-9,-1.3,-2.1,0,0,-1.2
Cc1ccc(OCCCC(=O)NCc2ccco2)c(C)c1,95*,x,-1,0,7,1.0,0.6,x,x,x
CC(Nc1ccc(N2CCOCC2)cc1)C(=O)N1c2ccccc2CC1C (stereo unspecified),56,-7,12,-6,12,1.2,-0.5,12,0,-10
O=C(Cn1cc([N+](=O)[O-])cn1)NCc1cc2ccccc2[nH]1,-10,-2,-1,-1,-22,-0.9,2.4,7,-1,2.9
Nc1nc(CSc2n[nH]c(-c3ccccc3)n2)nc(Nc2ccccc2)n1,61,9,-5,-10,1,0.1,-0.6,x,x,x
O=C(CCC(=O)c1ccc(F)cc1)OCc1nnc(-c2ccc([N+](=O)[O-])cc2)o1,x,-3,-9,x,x,0.2,4.1,4,8,-1.8
CCCCCn1c(N)c(-c2nc3ccccc3s2)c2c([N+](=O)[O-])nn(C)c(=O)c21,-9,36,-3,-7,59*,-0.6,-0.8,x,x,x
CCc1ccc(CNC(=O)CN2C(=O)COc3ccccc32)cc1,-6,-9,-1,-4,4,-2.1,12*,5,2,1.1
O=[N+]([O-])c1ccc(N/N=C/c2cccnc2)cc1,10,-5,7,-18,21,1.3,9.1,8,20,1.0
COC(=O)CN1C(=O)N/C(=C/c2ccccc2OC)C1=O,3,4,-2,0,-7,0.0,-6.4,x,x,x
O=C(CN(CC1CCCO1)C(=O)CNS(=O)(=O)c1ccc(Cl)cc1)NCc1ccco1 (stereo unspecified),-2,8,0,-2,11,-0.5,0.3,5,7,0.0
O=C(c1ccc2c(=O)n(Cc3ccccc3Cl)c(=S)[nH]c2c1)N1CCOCC1,10,10,4,41,-13,-1.7,0.8,5,3,-3.9
Cc1cccc(NS(=O)(=O)c2ccc(C)c(C(=O)NCC(c3ccccc3)N(C)C)c2)c1 (stereo unspecified),-16,-1,2,x,x,1.2,71*,4,5,2.1
CCOC1CS(=O)(=O)CC1OCC (stereo unspecified),-8,-2,0,-9,-3,0.0,-3.7,x,x,x
Cc1nn(-c2ccccc2)c2nc(-c3ccncc3)cc(C(=O)NCc3ccco3)c12,1,12,x,29,36,-0.1,-5.6,x,x,x
C/C(CC(=O)Nc1cccc2c1CCCC2)=N\NC=O,-1,10,-4,9,11,0.1,4.2,-4,3,-2.5
Cc1cc(OCC(=O)NCC2CCC(C(=O)O)CC2)c2c(C)c(C)c(=O)oc2c1 (stereo unspecified),x,4,-1,-9,-18,0.6,0.1,x,x,x
O=C(COc1ccc(Cl)cc1Cl)N/N=C/CCc1ccccc1,4,2,-10,-14,0,-0.3,0.9,x,x,x
Nc1ncnc2c1cnn2C1CCCCC1,18,-4,1,3,0,2.5,-1.9,-6,-8,-4.9
Cc1ccc(C2c3[nH]c4ccccc4c3C[C@H]3C(=O)N(c4ccccc4C(=O)N4CCC[C@@H]4C(=O)O)C(=O)N23)cc1 (stereo partly specified),98*,5,x,0,0,0.2,-9.2,-8,-14,-1.5
COc1ccc(-n2ncc3c2CC(C)(C)CC3NC(=O)c2ccoc2C)cc1 (stereo unspecified),-11,-4,x,8,10,0.3,-8.4,0,-2,-1.5
CC1CN(C(=O)c2c(Br)cnn2C)CC(C)O1 (stereo unspecified),5,-2,-3,-4,-5,-0.3,-8.4,x,x,x
CC(Nc1ccc2c(c1)OCCO2)C(=O)N1c2ccccc2CC1C (stereo unspecified),98*,7,-5,-10,-7,-0.4,-5.1,-17,-20,-2.4
Cc1nc(-n2nnc(CO)c2CO)nc2c1CCC2,-12,-6,-7,9,-14,0.5,-3.9,7,0,2.1
CC[C@@]1(C(=O)OC)N[C@H](CN(C)C(=O)Nc2ccc(Cl)cc2)[C@@H]2C(=O)N(Cc3ccccc3)C(=O)[C@@H]21,x,0,-3,x,x,0.4,1.5,-29,-37,-10
CN(C)Cc1c(O)ccc2c(-c3ccccc3)cc(=O)oc12,3,1,x,-1,3,0.4,6.8,0,-15,-2.1
CCN(CC)C(=O)c1c2c(nc3ccccc13)-c1ccccc1CC2,-19,1,-5,26,9,0.7,-5.0,x,x,x
Cc1ccc(NC(=S)/C(=C(\[O-])c2ccc(F)cc2)[n+]2ccccc2)cc1,-12,3,-2,-10,4,-1.3,17,-25*,1.1*,4.2*
COc1ccc(F)c(CN2CCCC(CO)(Cc3cccc(Cl)c3)C2)c1 (stereo unspecified),x,2,x,4,31,0.6,-1.0,-32,-48,-1.2
CC(C)(C)OC(=O)C[C@H]1C/C=C\C[C@H](CC(=O)NCCO)C(=O)NC[C@H](c2ccccc2)OC1=O,4,-2,1,x,x,0.4,-2.7,0,15,-0.4
COc1ccc2c(c1OC)C(=O)N1C2SC[C@H]1C(=O)NC1CC1 (stereo partly specified),12,3,x,1,-1,0.2,3.5,x,x,x
C=C(C)COc1ccc2c(C)c(CCC(=O)NC3CC3)c(=O)oc2c1,-6,-10,-1,-4,-7,-1.5,-1.4,-10,-11,-2.0

(continued)
Molecule,ALR inh,Beta2AR agonist,Beta apoptosis,Calb FLC,T cruzi inh,Bfl-1 A1 inh,LANA-H2A inh,Ecoli rRNA inh,Ecoli rRNA inh OD600,Ecoli rRNA inh RFP
O=[N+]([O-])c1ccc(Oc2ccc(F)cc2)c2ccncc12,-15,-5,5,-5,4,-0.7,5.8,x,x,x
CC1CCCC(NC(=O)COC(=O)Cc2ccsc2)C1C (stereo unspecified),-5,-3,-3,5,-20,0.3,4.0,x,x,x
Cc1cc(-c2ccc(/C=N/n3cnnc3)o2)ccc1Cl,0,4,-7,-18,0,0.8,-7.5,5,4,-2.0
O=C(Nc1ccc(Cl)cn1)c1cccc2c(Br)cccc12,-9,-9,23,2,14,-0.7,-4.1,4,10,2.8
CCOC(=O)c1c(NC(=O)c2ccc(C)cc2)sc2c1CC(C)(C)NC2(C)C,4,x,x,-8,32,-0.2,-0.8,x,x,x
CC(C)NC(=S)Nc1ccc(Oc2ccccc2)cc1,1,-17,-7,-8,4,-0.6,3.2,x,x,x
